VDR inh: vitamin D3 receptor (human) inhibition | Potency, µM, inactives show max response, negative = inhibition, usual class: inhibitors | VDR-SRC2-3 peptide fluorescence polarization, 2 h | 400,000 compounds, 0.93% hits | P11473; active = well fitted inhibition curve with a large enough effect; inconclusive = small, poorly fitted or top-dose-only effect, or another doubt; inactive = no such curve, though single readings can be large or run the other way; also: series mostly up to about 120 µM
Target sequence (P11473 whole entry, looked up): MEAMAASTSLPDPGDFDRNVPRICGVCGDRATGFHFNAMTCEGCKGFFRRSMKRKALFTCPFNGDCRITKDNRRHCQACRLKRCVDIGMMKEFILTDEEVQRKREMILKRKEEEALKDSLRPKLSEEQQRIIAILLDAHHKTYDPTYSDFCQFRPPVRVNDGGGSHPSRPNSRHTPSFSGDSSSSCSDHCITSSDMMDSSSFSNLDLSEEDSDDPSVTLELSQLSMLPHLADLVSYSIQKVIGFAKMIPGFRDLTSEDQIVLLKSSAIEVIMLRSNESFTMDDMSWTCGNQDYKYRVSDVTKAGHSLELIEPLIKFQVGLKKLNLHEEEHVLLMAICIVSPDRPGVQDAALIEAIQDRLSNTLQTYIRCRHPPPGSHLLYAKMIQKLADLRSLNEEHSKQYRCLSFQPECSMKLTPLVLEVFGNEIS
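Signal is fluorescence polarization, reporting how far test compounds block the interaction of VDR with the SRC2-3 coregulator peptide after a 2 h room-temperature incubation.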
Starred values were filed as active, the others as inactive; ? = inconclusive; & = joins results of further samples. % is scaled to controls: 0 for no effect and ±100 for the full control effect; potency is read from the fitted curve at half-maximal effect. The list is partial, so the mix of outcomes need not match the whole.

SMILES	VDR inh
Cc1c(CN2CCC(C(=O)Nc3cccc(-c4cccc(Cl)c4)c3)CC2)cnn1C	11%
CCOc1ccc(C2/C(=C(\O)c3c(C)[nH]c(C(=O)OC)c3C)C(=O)C(=O)N2CCN(C)C)cc1 (configuration not stated)	-18%
COc1ccc(OC)c(NC(=O)CC(Cc2ccccc2OC)C(=O)O)c1 (configuration not stated)	5%
Clc1nc(NCc2cccnc2)nc(N2CCOCC2)n1	0%
OC(COc1ccc(Cl)cc1Cl)Cn1ccnc1 (configuration not stated)	?
COc1cc(/C=N/Nc2nc(Nc3ccc(C)cc3)nc(-n3nc(C)cc3C)n2)cc(OC)c1OC	-14%
CCOc1ccc(-c2csc3nc[nH]c(=O)c23)cc1	-1%
CCOC(=O)c1cc(-c2ccccc2)nc2c1c(C)nn2-c1ccccn1	4%
Cc1cc(O)c(C(C)C)cc1N=Cc1ccccc1O	40µM*
COc1cccc(C2=NN(C(C)=O)C(c3cn(-c4ccccc4)nc3-c3cccs3)C2)c1 (configuration not stated)	-15%
COCc1cc(C)nc(SCc2nc3ccccc3c(=O)[nH]2)c1C#N	5%
COc1ccc(S(=O)(=O)N2CCOCC2)cc1NC(=O)CSc1nc(C)c(C)c(C)n1	-20%
Nc1nonc1-n1nnc(C(=O)N/N=C/c2cccc(F)c2)c1CN1CCCC1	-11%
O=C(NC1=NCCS1)c1ccc2c(c1)C(=O)N(Cc1ccco1)C2=O	10%
CCOc1ccc2nc(NC(=S)NCc3ccccc3)sc2c1	?
CCOC(=O)/C=C1\SCC(=O)N1CC(=O)Nc1cccc(F)c1	-5%
O=C(Nc1ccccc1)C(=O)c1c[nH]c2ccccc12	-1%
Cc1cc(C)cc(NC(=O)c2cc(C)nc3ccccc23)c1	-16%
COc1ccc(C(=O)N/C(=C\c2cn(C)c3ccccc23)C(=O)OCCN(C)C)cc1	9%
Cc1cc(NC(=O)CS(=O)(=O)c2cn(Cc3ccc(F)cc3)c3ccccc23)no1	-2%
NC[C@H](Cc1ccccc1)NCCc1cc(C(F)(F)F)cc(C(F)(F)F)c1	8%
CCC1(c2ccccc2)NC(=O)N(CC(=O)Nc2ccccc2C(=O)NC2CC2)C1=O (configuration not stated)	-25%
CCOc1ccc(CN2CCNC(=O)C2CC(=O)NCCCC2CCCC2)cc1 (configuration not stated)	-7%
CCN(CC)c1ncc(C)c(=O)[nH]1	-4%
CC(=O)Nc1ccc(NC(=O)COC(=O)c2c(-c3ccccc3)noc2C)cc1	9%
C=C(C)CSc1nc(N)c2c3c(sc2n1)CCC3	-4%
COc1ccc(C(C(=O)NCC2CCCO2)N(C(=O)CNC(=O)c2ccco2)c2ccc(C)c(C)c2)cc1OC (configuration not stated)	-10%
COc1ccc(C(=O)C[n+]2cc(-c3ccc(OC)cc3)n3c2CCCC3)cc1	20%&-6%
O=C(Nc1ccccc1F)c1ccc(Cn2nc(N3CCN(c4ccccc4)CC3)ccc2=O)o1	7%
Clc1ccc(-n2ncc3c(NCc4ccco4)ncnc32)cc1	23%
CCOC(=O)c1[nH]c(C)c(C(=O)N(C)C)c1C	-3%
Cc1ccc(-c2ccnc3cc(C)nn23)cc1	11%
CCCCCCCCCCCNC(=O)c1ccoc1C	79µM*
COc1ccc(CNC(=O)COC(=O)CCN2C(=O)C3CC=CCC3C2=O)cc1OC (configuration not stated)	-24%
COc1ccc(NC(=O)Nc2c(C)n(C)n(-c3ccccc3)c2=O)cc1	4%
CCOC(=O)c1cc(-c2ccc(F)cc2)n(CC(=O)NCc2cccnc2)c1C	7%
O=C(CCN1C(=O)/C(=C\c2ccccc2)SC1=S)NNC(=O)c1cccnc1	5%
COC(=O)c1c(C)cc(C)n2c1nc1ccccc12	4%
COc1ccccc1/C=C/C(=O)OCC(=O)Nc1nnc(-c2ccccc2)o1	-7%
CC1=C(C(=O)OCCc2ccccc2)C(c2ccsc2)NC(=O)N1C (configuration not stated)	-9%
CCOC(=O)C1(CCOC)CCN(C(=O)c2ccc(CSC)o2)CC1	2%
O=C(Nc1cccc(F)c1)N1CCN(C(=O)c2ccco2)CC1	-21%
CCOc1ccc(-c2ccc(NS(=O)(=O)c3ccc([N+](=O)[O-])cc3)cc2)nn1	-9%
O=C(Nc1ccccn1)C1CCN(S(=O)(=O)c2ccccc2)CC1	2%
CCc1sc(Nc2cccc(C)c2C)nc1-c1cc2cccc(OC)c2oc1=O	17%
CCC1C(=O)N=C(SCC(=O)Nc2ccc(S(N)(=O)=O)cc2)NC1=O (configuration not stated)	10%
COc1ccc2ccccc2c1C(=O)/C=C\c1ccoc1	-12%
Cc1ccc(S(=O)(=O)N(C)C)cc1NC(=O)c1ccccc1SCC(=O)N1CCCC1	?
O=C(NCc1ccccc1)C(c1ccccc1F)N(C(=O)c1csnn1)C1CCCC1 (configuration not stated)	-1%
Cc1ccc(C(=O)C2OC(=O)C(C)(C)C(=O)C2(C)C)cc1 (configuration not stated)	2%
CCCN(CCC)CCNC(=O)C1CCN(c2nc3ccc(CC)cc3s2)CC1	-2%
COc1ccc2oc(-c3ccc(C)c(NC(=O)c4ccc(-c5ccccc5[N+](=O)[O-])o4)c3)nc2c1	-13%
COc1ccc(OC)c(CCNC(=O)c2cc3c(=O)oc4ccc(C)cc4c3s2)c1	-16%
Cc1cc2c3c(ccc(C)c3n1)N=CN2c1ccccc1	-11%
COCCCNC(=O)/C(C#N)=C/c1cccc(NC(=O)c2ccccc2Cl)c1	?
CSCC[C@H](NC(=O)[C@@H]1CSC2c3ccccc3C(=O)N21)C(=O)NCc1ccco1 (some centres not stated)	-15%
CCOc1ccccc1/C=C/C(=O)c1ccc(Cl)cc1	?
CCOc1ccc(C(=O)C(C)OC(=O)c2nc(Cl)ccc2Cl)cc1 (configuration not stated)	8%
Cc1[nH]nc(N=Cc2c(O)n(C)c(=O)n(C)c2=O)c1-c1ccccc1	17%
O=C(C(Sc1ccccc1)c1ccccc1)N1CCN(c2ccccc2)CC1 (configuration not stated)	0%
Next records:
SMILES	VDR inh
COCCNC(=O)c1ccc2c(c1)nc(C)n2-c1cccc(Cl)c1	15%
COc1cc(-c2nc(C(=O)NCC3CCCO3)cc3c2[nH]c2ccccc23)cc(OC)c1OC (configuration not stated)	-14%
COC(=O)c1c(C)[nH]c(C)c1C(=O)c1ccccc1Cc1ccccc1	5%&-13%
CCOC(=O)C1(Cc2cccc(OC)c2)CCN(Cc2ccccc2OC)CC1	3%
CCc1ccc(NC(=O)CSc2nnc(Cn3c(=O)sc4ccccc43)n2C)cc1	-4%
C#CCN(C(=O)CC1C(=O)NCCN1C/C=C/c1ccccc1)C1CCCCC1 (configuration not stated)	-4%
CC(C)OC(=O)c1cccc(C(=O)Oc2ccc(Br)cc2)n1	-22%
COc1cc(CCc2ccccc2)c(C(=O)O)c(O)c1C/C=C(/C)CCC=C(C)C	5%
CN1CCN(C(=O)c2ccccc2N(Cc2ccccc2)S(=O)(=O)c2ccccc2)CC1	0%
Cc1ccc(NS(=O)(=O)c2cc(C(N)=O)ccc2C)cc1	14%
CC(C)c1ccc(Nc2nc(Cl)nc(Cl)n2)cc1	-11%
CCOC(=O)c1c(NC(=O)c2ccccc2C(=O)O)sc2c1CCCC2	-3%

Grouped by structure: the entries above with a COOH group (three)
SMILES	VDR inh
COc1ccc(OC)c(NC(=O)CC(Cc2ccccc2OC)C(=O)O)c1 (configuration not stated)	5%
COc1cc(CCc2ccccc2)c(C(=O)O)c(O)c1C/C=C(/C)CCC=C(C)C	5%
CCOC(=O)c1c(NC(=O)c2ccccc2C(=O)O)sc2c1CCCC2	-3%

Further records follow:
SMILES	VDR inh
Cc1cc(C)n2c(SCC(=O)NC3CCCC(C)C3C)nnc2n1 (configuration not stated)	0%
CCN(CC)/C(=N\S(=O)(=O)c1ccc(F)cc1)c1ccccc1	0%
C=C(C)c1cccc(C(C)(C)NC(=O)Nn2cnnc2)c1	-5%
Cc1nc2ccccc2nc1NS(=O)(=O)c1ccc(N)cc1	2%
O=C(COC(=O)C1CCCCC1C(=O)N1CCc2ccccc21)NCc1ccco1 (configuration not stated)	-10%
Cc1ccc(OCC(=O)O/N=C(\N)c2ccccn2)cc1	-9%
COc1ccc(NC(=O)c2ccco2)cc1NC(=O)c1cc(OC)c(OC)c(OC)c1	3%
O=C(Nc1ccccc1N1CCCC1)C1CCCO1 (configuration not stated)	-1%
Cc1ccc2[nH]c3c(=O)n(CC(=O)N4CC(C)CC(C)C4)ncc3c2c1 (configuration not stated)	-5%
COCCN1C(=O)N[C@@H](c2ccco2)C(C(C)=O)=C1C	-3%&-5%
COc1cc(S(=O)(=O)N2CCCCC2)ccc1NC(C)=O	-1%
O=C(c1cnn(-c2ccccc2)c1)c1ccc2ccccc2c1O	-15%
COCC(C)n1c(C)cc(C(=O)CN2c3cccc4cccc(c34)S2(=O)=O)c1C (configuration not stated)	5%
Cc1ccccc1C(=O)NC1CCN(CC(=O)NCc2cccs2)CC1	-5%
CCCCNC(=S)NNC(=O)c1csc2ccccc12	-3%
O=C(c1cccc([N+](=O)[O-])c1)N1CCN(c2ccc(Nc3ccccc3)nn2)CC1	5%
CC(C)OC(=O)c1ccc(NC(=O)Cn2c(-c3nonc3N)nc3ccccc32)cc1	-9%
Cc1ccc(OP(=O)(Nc2c(C)n(C)n(-c3ccccc3)c2=O)Oc2ccc(C)cc2)cc1	-5%
O=C(O)CSc1nnc(Cn2nnc3ccccc32)n1CCc1ccccc1	2%
CC1(C)C(=O)OC(c2c(F)c(F)c(F)c(F)c2F)C2(CCCCC2)C1=O (configuration not stated)	4%
COCc1c(C(=O)NCc2ccccc2CN2CCCC2)oc2ccccc12	-2%
C/C(Cc1ccccc1)=N\NC(=O)CNC(=O)c1ccc2c(c1)OCCO2	-14%
O=C(Cn1ncc(Cl)c(Cl)c1=O)c1ccc2c(c1)OCCO2	-3%
O=C(NCc1ccccc1)NC1(C(=O)N2CCOCC2)CCCCC1	5%

A run of entries of the results above:
SMILES	VDR inh
Cc1ccc(OP(=O)(Nc2c(C)n(C)n(-c3ccccc3)c2=O)Oc2ccc(C)cc2)cc1	-5%
O=C(O)CSc1nnc(Cn2nnc3ccccc32)n1CCc1ccccc1	2%
CC1(C)C(=O)OC(c2c(F)c(F)c(F)c(F)c2F)C2(CCCCC2)C1=O (configuration not stated)	4%
COCc1c(C(=O)NCc2ccccc2CN2CCCC2)oc2ccccc12	-2%
C/C(Cc1ccccc1)=N\NC(=O)CNC(=O)c1ccc2c(c1)OCCO2	-14%
O=C(Cn1ncc(Cl)c(Cl)c1=O)c1ccc2c(c1)OCCO2	-3%
O=C(NCc1ccccc1)NC1(C(=O)N2CCOCC2)CCCCC1	5%

(listing goes on)
SMILES	VDR inh
CNCC(O)C(O)C(O)C(O)CO (configuration not stated)	-3%
C=CCn1cnc2c(nnn2-c2ccc(Cl)cc2)c1=O	0%
Cn1cnc(S(=O)(=O)N2CCN(C(c3ccccc3)c3ccccc3)CC2)c1	-4%
COc1ccc(-n2nc(C(=O)Nc3ccccc3OC)c3c4ccccc4n(C)c3c2=O)cc1Cl	1%
COc1ccc(-n2c(SCC(=O)c3ccc[nH]3)nnc2-c2ccccc2)cc1	6%
O=C(COc1ccccc1[N+](=O)[O-])Nc1ccc(-c2nc3ccccc3s2)cc1	8%
Cc1noc(C)c1-c1nc(N(C)Cc2ccco2)c2ccccc2n1	28µM*
Cc1ccc(S(=O)(=O)NCC(c2cccnc2)N2CCc3ccccc32)cc1 (configuration not stated)	2%
CCSc1nnc(NC(=O)C(C)(C(F)(F)F)C(F)(F)F)s1	-4%
Cc1noc(C)c1S(=O)(=O)Nc1ccc(C(=O)NC2CCCCCC2)cc1	-10%
CC(=O)Nc1ccc(S(=O)(=O)N(C)c2ccc(OCCOc3cccc(C)c3)cc2)cc1	-7%
Cc1nc2cc(-c3cccc(F)c3)nn2c(C)c1CCC(=O)NC(C)c1ccc2c(c1)OCCO2 (configuration not stated)	-18%
COc1cc(C(=O)Nc2cccc(-c3nc4ccccc4o3)c2C)cc(OC)c1OC	-9%
CC(C)CNc1cc(=O)n(C)c(=O)n1C	12%
O=c1[nH]c2ccccc2c(=O)n1Cc1ccco1	3%
S=C(NCc1ccncc1)NC1CCCC1	-18%
COc1ccc(Cn2c(CCC(=O)N3CCN(c4ccccn4)CC3)nc3ncccc3c2=O)cc1	-17%
O=C(COc1ccccc1Cl)NCC(c1cccs1)N1CCOCC1 (configuration not stated)	6%
COc1ccc(S(=O)(=O)Nc2ccccc2C(=O)NCc2ccco2)cc1Br	-20%
Cc1cc2ccccc2cc1CN1CCCCC1	-3%
CC1CN2C(c3ccc([N+](=O)[O-])cc3)=CSC2=N1 (configuration not stated)	?
Cc1ccc(/C=N/NC(=S)NC(C)C)o1	-7%
O=[N+]([O-])c1cccc(/C=N/n2cnnc2)c1	4%
COC(=O)c1nc2nc(C)cc(=O)n2[nH]1	11%

An excerpt from above in order of heavy-atom count, largest number first:
SMILES	VDR inh
COc1cc(C(=O)Nc2cccc(-c3nc4ccccc4o3)c2C)cc(OC)c1OC	-9%
O=[N+]([O-])c1cccc(/C=N/n2cnnc2)c1	4%
CC(C)CNc1cc(=O)n(C)c(=O)n1C	12%

Next compounds.
SMILES	VDR inh
Nc1cc(=O)[nH]c(SCC(=O)N2N=C(c3ccc(Cl)cc3)CC2c2ccco2)n1 (configuration not stated)	5%
CCCCNC(=O)OCC(CC)NC(=O)OC(C)C (configuration not stated)	-5%
COc1ccc([N+](=O)[O-])c2c(=O)ccoc12	8%
COc1ccc(-c2ccc3c(c2)C2CC3CCN2C(=O)OCc2ccccc2)cc1 (configuration not stated)	-10%
CCC(OC(=O)CNS(=O)(=O)c1ccccc1)C(=O)c1ccccc1 (configuration not stated)	-13%
COc1ccccc1NC(=O)Nc1ccccc1Br	?
Cc1ccc(CNC(=O)COC(=O)c2cc(=O)[nH]c3ccccc23)cc1	1%
O=C(Cc1ccccc1)NNC(=O)c1cccs1	1%

Source: PubChem BioAssay (National Center for Advancing Translational Sciences (NCATS))
